Menin-MLL FL inh: displaces fluorescein MLL peptide from human menin; Fluorescence polarization, fluorescein-MLL peptide displacement from menin; FP activity change, % at 61.4 µM; 290,000 tested, under 10 active; AID 1766; inconclusive = falling polarisation curve, or a change in total fluorescence; inactive = total fluorescence flat and polarisation flat or rising; no compound was filed as active; the % refers to the polarisation; negative = inhibition;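 further: % of control where 0% means no effect; inhibitors lower the polarisation; unlabelled MLL peptide was the positive control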
TRPML1 blocker: blocks the human TRPML1 channel | 390,000 tested, 0.02% active | activity change, negative = inhibition, % (concentration not given with the values) | Q9GZU1 | TRPML1-inducible cells, Ca2+ dye fluorescence, FDSS; stronger effect = lower value; inhibition of EC80 agonist-evoked calcium signal; in the data active means activity change below about -50%; inconclusive means about -30% to -50%; inactive means above about -30%;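 further: stimulus is agonist 54-4 at its EC80 concentration; on the % scale 0 is the no-effect control and ±100 the full control effect; compound concentration not given in the record; the text of the record puts the active cut at -80%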
Target sequence (Q9GZU1 whole entry, looked up): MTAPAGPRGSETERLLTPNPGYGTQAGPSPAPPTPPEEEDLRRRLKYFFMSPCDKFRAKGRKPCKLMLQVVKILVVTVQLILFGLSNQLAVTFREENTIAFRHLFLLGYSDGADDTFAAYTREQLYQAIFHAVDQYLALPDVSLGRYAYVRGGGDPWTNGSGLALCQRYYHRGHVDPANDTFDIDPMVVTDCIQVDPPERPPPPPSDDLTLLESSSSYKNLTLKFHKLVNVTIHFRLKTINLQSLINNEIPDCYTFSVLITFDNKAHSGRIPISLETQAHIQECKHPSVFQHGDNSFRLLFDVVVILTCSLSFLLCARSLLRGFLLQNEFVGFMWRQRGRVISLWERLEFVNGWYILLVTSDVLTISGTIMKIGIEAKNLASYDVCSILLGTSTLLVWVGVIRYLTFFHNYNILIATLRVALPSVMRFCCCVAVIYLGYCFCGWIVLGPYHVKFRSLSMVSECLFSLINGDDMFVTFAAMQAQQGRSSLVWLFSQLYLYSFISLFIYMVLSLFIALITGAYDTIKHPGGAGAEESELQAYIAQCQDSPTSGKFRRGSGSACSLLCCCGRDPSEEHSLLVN
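Calcium fluorescence in TRPML1-DL cells induced overnight with Tet: a 110 s read after compound pin addition, then a 110 s antagonist read after challenge with 54-4 at 4 uM final (EC80).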
gsp agonist: gsp mutant agonism | gsp mutant cells, cAMP HTRF, 30 min; control for the full effect not named in the record | 340,000 tested, 0.13% active | Potency, µM (doses to about 76.9 µM), for inactives: top-dose activation (cAMP increase), usual class: activators; active = well fitted activation curve with a large enough effect; inconclusive = small, poorly fitted or top-dose-only effect, or another doubt; inactive = no such curve, though single readings can be large or run the other way; cell line not stated here;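 further: phosphodiesterase inhibitor Ro 20-1724 added with compounds to block cAMP breakdown; potency means the concentration at half of the fitted maximal effect; nearly all actives have a fitted effect of over 60% in size; about a fifth of the inactives were tested at one dose only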
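Cells in DMEM/10% FBS with G418 were pretreated with compounds in DMSO plus […] (300 uM stock) for 30 min at 37C. cAMP was measured by HTRF (cAMP-d2 plus anti-cAMP antibody-K) after 30 min at room temperature.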
TRPML1 agonist: activates the human TRPML1 channel | Q9GZU1 | TRPML1-expressing cells, Ca2+ dye fluorescence, FDSS; host cell line not named in the record; reference of the full effect not given here | activation, % (test concentration not listed) | 410,000 tested, 0.12% active; in the data active = activation above about 50%; inconclusive = about 30% to 50%; inactive = below about 30%; further: 0% is about no effect; the text of the record puts the active cut at 80%
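Kinetic FDSS Ca2+ read in Tet-induced TRPML1-DL cells (ABD Ca8 dye plus quencher, 45-90 min RT loading): baseline, then compound, then 110 s agonist window; EC80 agonist 54-4 at 4uM final added afterwards for a 110 s antagonist window.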
gsp antag: gsp mutant antagonism | gsp-mutant cells, cAMP HTRF, 30 min; control for the full effect not named in the record | Potency, µM (titrated, usually from 76.9 µM), without a hit: top-dose activity change, negative = inhibition, most hits filed as inhibitors | 340,000 tested, 0.4% active; active = falling curve of any shape with a large fitted effect; inconclusive = falling curve, mostly with a smaller effect; inactive = flat or rising curve; cell line not stated here;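 further: intracellular cAMP measured with PDE inhibitor Ro 20-1724 present during compound exposure; potency means the concentration at half of the fitted maximal effect; on the % scale 0 is the no-effect control and ±100 the full control effect; nearly all actives have a fitted effect of over 65% in size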
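HTRF cAMP read-out (cAMP-d2 plus anti-cAMP antibody-K in lysis buffer, 30 min RT). Before lysis, cells are exposed to compounds with […] for 30 min at 37C in DPBS containing Ca/Mg, BSA and Tween 20.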
ClpP mod: qHTS Assay for Activators of ClpP; Potency, µM (titrated, usually from 57.5 µM), inactives show at the top dose activity change, negative = active; purified B. subtilis ClpP, FRET peptide cleavage, 20 min; ATP-dependent Clp protease proteolytic subunit (Bacillus subtilis (strain 168)), P80244; 340,000 tested, 1.9% active; active = well fitted falling curve with a large enough effect; inconclusive = small, poorly fitted or top-dose-only effect; inactive = no such curve, though single readings can be large or run the other way; further: potency means the concentration at half of the fitted maximal effect; the source files actives as falling curves though it sought activators and does not explain the sign; nearly all actives have a fitted effect of over 65% in size; many hits overshoot -100%
Target sequence (P80244 whole entry, looked up): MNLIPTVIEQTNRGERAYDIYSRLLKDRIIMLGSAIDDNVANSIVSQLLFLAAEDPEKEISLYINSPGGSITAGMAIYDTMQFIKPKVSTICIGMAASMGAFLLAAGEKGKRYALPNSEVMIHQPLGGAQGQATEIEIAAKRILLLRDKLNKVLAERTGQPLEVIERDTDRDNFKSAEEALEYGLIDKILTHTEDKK
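ClpP 10 microg/mL final, pH 8 Tris/KCl buffer with BSA, glycerol, Tween-20; compound pinned in; FRET-FV substrate; RT 20 min; Ex320/Em430; ΔFRET vs ADEP 5.8 microM, DMSO, no enzyme.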
* hit, by the source's call; ? = inconclusive; . = not tested or not shown; & = joins results of further samples; [ ] = remark or other dose.

SMILES	Menin-MLL FL inh	TRPML1 blocker	gsp agonist	TRPML1 agonist	gsp antag	ClpP mod
O=C(Nc1ccccc1N1CCCCC1)C1CCN(S(=O)(=O)c2ccccc2C(F)(F)F)CC1	.	10	-3%[15.4 µM]	2.7	-2%	.
O=C(O)CSc1nc2sc3c(c2c(=O)n1-c1ccccc1)CCC3	2.4	-7	5%[15.4 µM]	0.3	-3%	.
CCOc1ccc(CNC(=O)c2ccc(Sc3ccc(Cl)cc3)c(NC(C)=O)c2)cc1	0.7	41&1	4%	2.9&0.3	-6%	-28%&-9.4%
N#Cc1c(-c2ccccc2)cc(-c2ccccc2)nc1SCC(=O)NCC(=O)O	3.6	6	24%[15.4 µM]	1.2	3%	.
COc1ccc(N(CC(=O)Nc2cccc(C)c2C)S(=O)(=O)c2c(C)n[nH]c2C)cc1	4.2	7	-53%[inhibitor]	-1.0	-13%	4.8%
C[C@]12C=CC(=O)C=C1CC[C@@H]1C2C(O)C[C@@]2(C)C1CC[C@]2(O)C(=O)COC(=O)CCC(=O)NC(CC(=O)O)C(=O)O (stereo partly drawn)	1.2	8	0%	-0.7	-6%	-0.2%
COc1cccc(CN=C2Nc3ccccc3CS2)c1	-5.2	-14	4%[15.4 µM]	-0.3	0%	.
CCCCC(=O)Nc1ccc(C(=O)c2ccccc2)cc1	1.5	-4	?	-0.1	-15%	.
COc1cccc2cc(-c3nc(Nc4cccc(C)c4)sc3C)c(=O)oc12	.	4	.	-0.1	.	0.8%
O=C(O)Cn1nc(-c2ccc(F)cc2)oc1=O	5.1	-15	11%	0.6	-3%	-5.3%
N#Cc1ccccc1/C=N/Nc1nc(-c2ccccc2)c2cc(Br)ccc2n1	1.6	8	-1%	0.9	-5%	-1.5%
COCCC(=O)N1CCC(Oc2ccc(C(=O)NCCn3cccn3)cc2)CC1	-2.0	-16	15%	0.0	4%	0.9%
CC(=O)c1ccc(N2CCN(c3ncnc4c3c(-c3ccccc3)cn4-c3ccc(C)c(Cl)c3)CC2)cc1	.	-20	.	-0.3	.	-4.2%
Cc1ccc(S(=O)(=O)NCc2nc3nc(C)cc(C)n3n2)c(C)c1	-2.0	-5&-6	18%	0.1&0.5	3%	1.1%&-0.3%
CCOC(=O)CNC(=O)CN1CCCN(S(=O)(=O)c2ccc(Br)s2)CC1	0.2	1	-1%	1.3	-6%	-2.5%
CC(C)C[C@H](NC(=O)c1nc[nH]c1C(=O)N1CCN(C(=O)OC(C)(C)C)CC1)C(=O)OC(C)(C)C	-0.7	-1	.	0.2	4%	-1.6%
CCN1CCCC1Cn1cnc2c([nH]c3ccc(C)cc32)c1=O (stereo not drawn)	2.1	29	2%[15.4 µM]	0.4	-1%	2.5%
Fc1ccc(NC(=S)Nc2ccccc2N2CCOCC2)cc1Cl	-0.4	-22	7%[15.4 µM]	-0.4	6%	.
O=C1CC(c2ccccc2F)c2cc3c(cc2N1)CCC3 (stereo not drawn)	3.0	3	8%	3.2	-10%	0.7%
Oc1c(C(c2ccccc2F)N2CCC3(CC2)OCCO3)sc2nc(-c3ccco3)nn12 (stereo not drawn)	.	28	.	1.6	.	3.6%
O=C(O)CC1Oc2ccc(Cl)cc2NC1=O (stereo not drawn)	-1.0	-1	-31%[inhibitor]	0.5	6%	0.3%
CCc1ccc(Nc2nc3ccccc3c3nnc(C)n23)cc1	.	19	.	2.0	.	-10%
CCN(CC(=O)NC1CCS(=O)(=O)C1)c1nc(-c2ccccc2)nc2ccccc12 (stereo not drawn)	1.0	-12	1%	0.8	-18%	-6.0%
Nc1c([N+](=O)[O-])cnnc1-c1ccccc1	-0.7	18	23%	1.8	12%	-0.8%
CCCOc1cccc(C(=O)NCCCNC(=O)c2cccnc2)c1	0.3	-14	-7%	0.3	-2%	-2.4%
COc1ccc(NC(=O)C2=C(C)Nc3ncnn3C2c2ccc[nH]2)cc1 (stereo not drawn)	.	1	.	1.4	.	-2.4%
COC1=C/C(=C/c2c(N)n3cc(C)sc3nc2=O)C=CC1=O	?	-13	-12%	3.6	-27%	1.9%
O=C(O)c1ccc(Nc2nc(-c3ccccc3)cs2)cc1	3.5	-12	11%[15.4 µM]	0.8	?	.
COc1ccccc1CNc1ccc(CNc2ncn[nH]2)cc1	4.5	34	22%	0.4	1%	-1.9%
COc1ccccc1-c1cccc([C@@H]2C[C@H]3[C@H](CON3C)CN2Cc2ccccc2)c1	.	52	.	-0.8	-20%	-2.2%
O=C(NC(=S)Nn1cnnc1)c1ccc(F)cc1Cl	-6.2	2	5%[15.4 µM]	0.1	0%	.
O=C(Nc1cccc([N+](=O)[O-])c1)Nc1cccs1	-0.7	-20	8%	0.2	-29%	11%
Cc1cccc(N(C(=O)c2csnn2)C(C(=O)NCc2ccccc2)c2ccncc2)c1 (stereo not drawn)	0.0	-1	12%	0.3	-2%	.
COc1ccc(C(=O)N2CCOC2CNC(=O)C(=O)NCc2ccc3c(c2)OCO3)cc1 (stereo not drawn)	2.0	8	2%[15.4 µM]	-0.1	-7%	0.0%
O=C(c1cccs1)N1CCC(c2ccccc2)C1 (stereo not drawn)	3.5	-13	-1%	1.1	-8%	3.1%
COc1ccc(-c2nnn(CC(=O)N(CC3CCCO3)C(C(=O)NC(C)(C)C)c3ccco3)n2)cc1OC (stereo not drawn)	-2.6	9	-1%[15.4 µM]	-0.4	12%	.

3 entries out of the list above, arranged by the number in gsp agonist, largest number first.
canonical_smiles | Menin-MLL FL inh | TRPML1 blocker | gsp agonist | gsp antag
Cc1cccc(N(C(=O)c2csnn2)C(C(=O)NCc2ccccc2)c2ccncc2)c1 (stereo not drawn) | 0.0 | -1 | 12% | -2%
CCCOc1cccc(C(=O)NCCCNC(=O)c2cccnc2)c1 | 0.3 | -14 | -7% | -2%
COC1=C/C(=C/c2c(N)n3cc(C)sc3nc2=O)C=CC1=O | ? | -13 | -12% | -27%

The listing continues.
SMILES	Menin-MLL FL inh	TRPML1 blocker	gsp agonist	TRPML1 agonist	gsp antag	ClpP mod
O=C(Nc1ccc2[nH]c(=O)[nH]c2c1)c1ccc([N+](=O)[O-])o1	.	-1	3%	1.6	11%	-3.8%
CC1(C)Cc2c(sc(NC(=O)COc3cccc4ccccc34)c2C#N)C(C)(C)N1	2.8	-5	7%[15.4 µM]	1.1	8%	.
COc1cc(COc2ccc3c(C)c(Cc4ccccc4)c(=O)oc3c2)cc(OC)c1OC	3.8	46	0%[15.4 µM]	1.4	-16%	-0.6%
CC1CCN(C(=O)CSc2nc(=O)n3ccccc3n2)CC1	.	-1	?	-0.9	8%	-4.3%
CC(=O)c1ccc(OC(=O)CN2C(=O)c3ccccc3C2=O)cc1	0.3	-3	-28%	3.9	-22%	1.7%
Cc1cccnc1NC(=O)CSc1nnc(Cc2ccccc2)o1	4.4	-8	-3%	-0.2	4%	-6.0%
Cc1cc(C)c(NC(=O)c2cc(S(=O)(=O)N3CCC4(CC3)OCCO4)ccc2F)c(C)c1	.	-6	.	1.5	.	-1.0%
CCOc1ccccc1NC(=O)CN(C)S(=O)(=O)c1ccc(C(=O)N2CCOCC2)s1	.	-20	.	-0.6	.	0.6%
CCN(CC(=O)NCc1cccs1)S(=O)(=O)c1ccc(F)c(F)c1F	.	13	1%[15.4 µM]	-0.1	-11%	-2.3%
COc1cc(C(C)=O)ccc1COc1ccc(C(=O)OC(C)C(=O)NC(N)=O)cc1OC (stereo not drawn)	2.4	-10	-20%	-0.5	-3%	1.6%
CC1(C(=O)NC2CCCCCCC2)CCC(=O)N1CCN1CCOCC1 (stereo not drawn)	-0.5	19	-1%	0.6	5%	-2.8%
CC1=C(C(=O)O)N2C(=O)C(NC(=O)c3ccc(F)cc3)C2SC1 (stereo not drawn)	.	-2	0%	-0.4	8%	0.7%
CC(C)C1COS(=O)(=O)NC1CC(=O)SC(C)(C)C (stereo not drawn)	2.3	-27	-15%	0.4	0%	2.2%
COc1cccc(CNC(=O)CCn2c(=O)c3cccn3c3ccc(F)cc32)c1OC	.	8	.	3.1	.	-24%
COc1cc(Cl)ccc1OCc1cc(C(=O)NCCCN2CCCC2=O)no1	.	7	-29%	-0.6	10%	-0.4%
CCC1CCCCN1Cc1ccc(OC)c(C)c1 (stereo not drawn)	1.5	4	?	0.7	-1%	0.9%
CCC(C)C(Nc1ccc(C(=O)OC)cc1[N+](=O)[O-])C(=O)OC (stereo not drawn)	2.6	1	8%	2.7	-19%	1.8%
CC(C)CNC(=O)c1cccc(NC(=O)COc2ccc([N+](=O)[O-])cc2)c1	-5.5	11	-24%	0.7	3%	.
CCOc1ccc(S(=O)(=O)N2CCC(C(=O)N3CCCCCC3)CC2)cc1Cl	.	2	?	2.4	?	-16%
CCOc1ccc(NC(=S)NC2CC3CCC(C2)N3Cc2ccco2)cc1 (stereo not drawn)	-0.4	-8	-3%	0.2	10%	.
CC1(C)CC(C(CC(=O)N2CCCC2)Cc2ccccc2)CCO1 (stereo not drawn)	-0.4	10	-22%	1.5	50µM*	0.1%
Cc1ccc(C(=O)N(Cc2ccco2)c2ccccn2)cc1	.	-13	.	-1.0	.	0.7%
CCOC(=O)C1=CCN(S(=O)(=O)c2ccc(C)cc2)C1c1cccc(Br)c1 (stereo not drawn)	.	-2	.	-0.1	.	-1.8%
Brc1ccc(-c2cnco2)cc1	-3.7	12	?	-0.6	11%	.
COc1ccc(C2N=C(N)Nc3nc4ccccc4n32)cc1 (stereo not drawn)	.	-11	.	0.8	.	-5.1%
Cc1cccc(-n2ncc3c(N(CCO)CCO)ncnc32)c1	0.0	-10	-17%	-0.6	8%	-3.2%
COc1cccc(-c2nn(-c3ccccc3)cc2/C=C(\C#N)C(=O)NCCCn2ccnc2)c1	.	-6	4%[15.4 µM]	0.3	-8%	-0.9%
O=C(O)c1ccc(S(=O)(=O)c2ccc3c(c2)C(=O)N(c2ccc(O)cc2)C3=O)cc1	-0.4	35	5%	-0.2	5%	0.7%
Cc1nnc2ccc(-c3ccc(NC(=O)c4cccnc4Cl)cc3)nn12	1.4	-6	?	-0.5	-7%	.
Cc1ccc(-c2nc(CS(=O)CC(=O)NCCN(CC(C)C)CC(C)C)c(C)o2)cc1 (stereo not drawn)	2.7	8	0%	0.4	-1%	-4.3%
COc1ccc(-c2ccc3c(N)c(C(=O)Nc4cccc(C)c4)sc3n2)cc1	.	-5	.	2.0	.	4.8%
Cc1nc(-c2cccs2)ccc1C(=O)O	-3.3	41	44%	-0.7	9%	3.3%

Screening data deposited in PubChem BioAssay by National Center for Advancing Translational Sciences (NCATS).
